Mtb H37Rv: Confirmatory growth inhibition assay against Mycobacterium tuberculosis H37Rv, potency (AID 1949); hit rate 1.6% among 100,000; one-dose inhibition, % at 10 µg/mL; IC50 in µg/mL for titrated hits; most inactive calls were filed without a number and no value below 0 was filed;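 active = confirmed in a dose series; inconclusive = about 50% or more but not retested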;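 note: bacteria grown 7 days with compound before Alamar blue readout; 0% = untreated bacteria and 100% = reference antibiotic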
* = called active by the depositor; i = inactive; ? = inconclusive. Not all compounds are listed (hit frequency here may not be typical).

SMILES | Mtb H37Rv
CCOC(=O)N1CCN(C(=O)COc2ccc(C(C)(C)C)cc2Br)CC1 | 11%
Cc1cccc(NC(=O)CC2CCC2)c1 | i
Cc1c(C)c2cc(Cl)c(OCc3ccccc3Br)cc2oc1=O | i
Nc1nc(CN2CCC(Cc3ccccc3)CC2)nc(Nc2ccccc2)n1 | 47%
CC(C)c1ccc2oc(-c3cccc(NC(=S)NC(=O)c4cccc([N+](=O)[O-])c4)c3)nc2c1 | i
COc1ccc(C(=O)Nc2ccccc2N2CCOCC2)cc1Cl | i
COC(=O)C1(NC(=O)NC23CC4CC(CC(C4)C2)C3)CCCCC1 | 2%
Cc1cc(=O)oc2ccc(OCC(=O)N3CCC(C)CC3)cc12 | i
COc1ccccc1NC(C)c1cc(Cl)ccc1O (stereo not given) | i
Cc1cc(=O)c2ccccc2n1Cc1ccccc1 | 17%
CCc1cc2c(=O)n(-c3ccc(C)cc3)cnc2s1 | i
c1ccc(-c2ccccc2OCCCCN2CCCC2)cc1 | i
O=C(NC(=S)NCc1ccc(F)cc1)c1ccccc1 | i
COc1cc(C2C(C(=O)N3CCCCC3)=C(C)NC3=C2C(=O)CC(C)(C)C3)cc(Cl)c1O (stereo not given) | i
O=C(CCc1ccccc1)Nc1ccccc1C(F)(F)F | i
Cc1cccc(Nc2nc(N)nc(CN3CCC(C)CC3)n2)c1C | 23%
CCCCOc1ccc(C2NC(=S)NC(C)=C2C(=O)OC)cc1OC (stereo not given) | i
Cc1onc(-c2ccccc2)c1C(=O)NC(C)c1ccc2c(c1)OCO2 (stereo not given) | i
CCOC(=O)COc1ccc2c(=O)c(Oc3cnn(-c4ccccc4)c3)c(C(F)(F)F)oc2c1 | 4%
COc1ccc(S(=O)(=O)N2CCN(C)CC2)cc1-c1nnc2c3ccccc3c(C)nn12 | i
COc1ccc(S(=O)(=O)N2CCN(c3cc(Cl)ccc3C)CC2)c2ccccc12 | 0%
Cc1ccc(NC(=O)CSc2nc3sc4c(c3c(=O)n2-c2ccccc2)CC(C)(C)OC4)cc1 | i
O=C(CSc1nnc(-c2ccc3c(c2)OCO3)n1-c1ccccc1)c1ccccc1 | i
CCOC(=O)c1c(-c2ccc(Cl)cc2)csc1NC(=O)c1cccs1 | i
O=C(CCC1CCCC1)N1CCN(S(=O)(=O)c2ccc(Cl)cc2)CC1 | 0%
COc1ccccc1NC(=O)c1ccc(COc2ccc(C(C)(C)C)cc2)o1 | 3%
CCc1ccc(NC(=O)CN(c2ccc(OC)c(Cl)c2)S(C)(=O)=O)cc1 | i
CCC(CC)C(=O)NCCCN1CCOCC1 | i
NC1=NC(=Nc2cccc(C(F)(F)F)c2)c2ccccc21 | 6%
C=CCn1c(SCC(=O)c2ccc(C)cc2)nc2ccccc2c1=O | 1%
COc1ccc(S(=O)(=O)N(CC(=O)O)Cc2ccccc2)cc1Cl | i
COc1ccccc1NC(=O)c1cn(-c2ccccc2)nc1-c1ccc(Cl)cc1 | 1%
CCCCC(=O)Nc1ccc(NC(=O)c2ccc(OCC)c(Cl)c2)cc1OC | 1%
CSc1cccc(NC(=O)c2ccc(N(Cc3ccccc3)S(C)(=O)=O)cc2)c1 | i
CCOC(=O)c1c(NC(=O)CN(c2ccc(CC)cc2)S(C)(=O)=O)sc2c1CCCC2 | 12%
COc1cc(OC)cc(C2C(C#N)=C(N)Oc3n[nH]c(-c4cccnc4)c32)c1 (stereo not given) | i
O=C(Nc1cccc(F)c1)Nc1ccc2c(c1)OCCO2 | i
CC(C)c1ccc(C(=O)N2CCN(c3ccccc3F)CC2)cc1 | i
Cc1nc2sc(C(=O)OCc3ccccc3)c(N)c2c(C)c1C | i
Cc1cc(C)nc(/N=C(\NC(=O)NC2CCCCC2)Nc2ccccc2Sc2ccccc2)n1 | 21%
COc1cc(C(=O)Nc2cccc(-c3cn4ccsc4n3)c2)cc(OC)c1OC | 0%
Cc1ccc(N/C(N)=N/c2nc(CSc3ccc(C)cc3)cc(=O)[nH]2)cc1 | i
Cc1c(-c2ccc(Cl)cc2Cl)nc2ccccc2c1C(=O)NCCN1CCOCC1 | 0%
CC1(C)Cc2c(sc3[nH]c(=S)n(-c4ccccc4)c(=O)c23)CS1 | i
COc1ccc(OC(C)C(=O)N2CCN(C)CC2)cc1 (stereo not given) | i
CCc1ccc(-n2c(-c3ccccc3Cl)n[nH]c2=S)cc1 | i
COc1cc(CN2CCC(C(=O)NCCc3ccccc3)CC2)ccc1OCc1ccccc1 | 13%
COc1ccc(C(=O)NC(=S)Nc2ccc(NC(C)=O)cc2)cc1Cl | i
Cc1nnc(SCC(=O)Nc2ccc(I)cc2C(C)C)s1 | i
Cc1sc2ncnc(SCC(=O)Nc3ccccc3C(C)C)c2c1C | i

The listing continues.
SMILES | Mtb H37Rv
Cc1c(NC(=O)NC2CCCCC2)cccc1[N+](=O)[O-] | i
Cc1ccc(N(CC(=O)NC2CC2)S(=O)(=O)c2ccc(Cl)cc2)cc1C | i
CC(C)(C)CC(=O)Nc1cccc2ccccc12 | i
Fc1ccccc1-c1n[nH]c(=S)n1CCc1ccccc1 | 1%
Cc1c(C(=O)OC(C)C)sc(NC(=O)C2CCCO2)c1C(=O)OC(C)C (stereo not given) | 3%
Cc1ccc(CNC(=O)C(=O)NC2CC2)cc1 | i
CCOc1ccccc1NC(=O)C1CCN(C(=O)c2ccccc2C)CC1 | i
CC(C)c1ccc(NC(=S)NC(=O)C(c2ccccc2)c2ccccc2)cc1 | i
COc1cc(S(=O)(=O)N2CCCCC2)ccc1NC(=O)c1ccccc1I | i
O=C(CSc1ccccc1)NCCc1ccccc1 | i
CCOC(=O)c1c(NC(=O)CSc2nnc(CSc3nc(C)cc(C)n3)o2)sc(C)c1C | i
COc1ccccc1-c1cn[nH]c(=S)n1 | i
CCOC(=O)Cc1cc(=O)[nH]c(/N=C(/NC(=O)c2ccccc2)Nc2cccc(Cl)c2C)n1 | 2%
COc1ccc(OCCCC(=O)Nc2cccc3ccccc23)cc1 | i
CCCCc1[nH]nc2c1C(c1ccc(OC)cc1OC)C(C#N)=C(N)O2 (stereo not given) | 4%
CCOc1cc(C2NC(=S)NC(C)=C2C(=O)Nc2ccccc2)ccc1OCc1ccccc1 (stereo not given) | 16%
CCc1cccc(OCCCCN2CCCCC2)c1 | i
CCOc1ccccc1NC(=O)C1CCN(S(=O)(=O)c2ccc(Br)cc2)CC1 | 6%
Cc1cccc(Oc2coc3cc(OC(=O)c4cc5ccccc5oc4=O)ccc3c2=O)c1 | 28%
CCc1ccc2c(Cl)c(C(=O)NNC(=S)Nc3ccc(OC)cc3OC)sc2c1 | i
CC1CN(C(=S)c2ccc(N(C)C)cc2)CC(C)O1 (stereo not given) | i
CC(C)c1ccc(OCc2nnc(SCC(=O)Nc3cccc(Cl)c3)n2C)cc1 | 3%
O=C1c2ccc(-c3nc4ccccc4o3)cc2C(=O)N1Cc1cccnc1 | i
O=S1(=O)N=C(Nc2nc3c(s2)CCCC3)c2ccccc21 | ?
Cc1ccn(S(=O)(=O)c2ccc(Cl)c(C)c2Cl)n1 | i
CCCCNC(=O)c1ccccc1NC(=O)c1ccc(SC)cc1OC | i
Cc1ccc(-c2ccc(/C=C/C(=O)c3ccco3)o2)cc1 | 1.7µg/mL*
COc1ccc(S(=O)(=O)Nc2ccc(S(=O)(=O)N3CCCC3)cc2)cc1C | i
CC(C)C(=O)Nc1ccc(NC(=O)c2cccc(COc3ccccc3)c2)cc1 | i
CC(=NCCN1CCN(C(=O)c2ccccc2)CC1)c1c(C)[nH]n(-c2nc3ccccc3s2)c1=O | i
CCn1c(SCC(=O)Nc2cc(C)on2)nc2scc(-c3ccc(C)cc3)c2c1=O | i
COc1ccc(S(=O)(=O)NC2CCCCC2)cc1I | i
CC(=O)Nc1nc2nc(-c3ccccc3)cc(=O)n2[nH]1 | i
CCc1nnc2n1Nc1nc3ccccc3nc1S2 | ?
CS(=O)(=O)N(CC(=O)NC1CCCCCC1)c1ccc(Oc2ccccc2)cc1 | i
CC(Oc1cccc(Cl)c1)C(=O)Nc1ccc(Br)cc1F (stereo not given) | i
NC(=O)C1CCN(C2CC(=O)N(Cc3cccs3)C2=O)CC1 (stereo not given) | i
Cc1cc(I)ccc1NC(=O)c1ccc(CN2CCOCC2)cc1 | i
Cc1ccc(-c2cc(C(=O)NCc3ccccn3)c3ccccc3n2)cc1C | 21%
CC1=C(C(=O)Nc2ccccc2)C(c2ccc(C(F)(F)F)cc2)NC(=S)N1 (stereo not given) | i
COc1ccccc1NS(=O)(=O)c1ccccc1C#N | i
O=C(Cc1cccc2ccccc12)Nc1ccc(S(=O)(=O)N2CCc3ccccc32)cc1 | i
COc1ccc(-c2cc(C(F)(F)F)nc(SCC(=O)N3CCOCC3)n2)cc1OC | i
CCc1cccc2c1NC(=O)C21C(C#N)=C(N)Oc2c1c(C)nn2-c1ccccc1 (stereo not given) | i
COc1ccc(CC(=O)Nc2ccc(C(F)(F)F)cc2)cc1OC | i
Cc1ccc2nc(/C(C#N)=C\c3ccc4c(c3)OCCO4)[nH]c2c1 | 0%
Cc1nnc(SCC(=O)Nc2nc3c(C)cccc3s2)s1 | 1%
Cc1sc2ncnc(NC(C)c3ccccc3)c2c1C (stereo not given) | i
Cc1ccccc1OCC(=O)Nc1ccc(C(=O)O)cc1 | i
O=C1c2ccc([N+](=O)[O-])cc2C(=O)N1Cc1ccco1 | i

More compounds follow:
SMILES | Mtb H37Rv
CSc1nnnn1-c1ccc(C(N)=O)cc1 | i
CN1CCC(OC(=O)c2cccc(Cl)c2)CC1 | i
Cc1c(NC(=O)CN(c2cccc(F)c2)S(C)(=O)=O)c(=O)n(-c2ccccc2)n1C | i
CCOc1ccc(NC(=O)C2CC2c2ccccc2)c([N+](=O)[O-])c1 (stereo not given) | 4%
Cc1cc(C)cc(C(=O)Nc2ccc(NC(=O)c3ccc(C(C)(C)C)cc3)cc2)c1 | i
Cn1c(=O)n(C)c2cc([N+](=O)[O-])c(N3CCNCC3)cc21 | i
CSc1ccccc1NC(=O)c1cccc(Cl)c1 | i
CC(C)c1ccccc1OCC(=O)Nc1ccc(S(=O)(=O)N(C)Cc2ccccc2)cc1 | i
O=C(CSc1nnc(NC(=O)c2ccccc2Cl)s1)Nc1ccc(Cl)cc1 | i
COc1ccc(Cl)cc1NC(=O)CSc1nnc(-c2ccccc2)n1C | 1%
COc1ccc(/C=N/NC(=O)c2cc(C3CC3)[nH]n2)cc1OC | i
Cc1ccc(-c2noc(CSc3nc4ccccc4[nH]3)n2)cc1 | 3%
COc1cccc(-c2ccc(-c3noc(-c4cccnc4)n3)c(OC)n2)c1 | i
C=C1N(c2ccccc2C)C(=O)OC1(C)C | i
O=C(c1cc(Cl)ccc1Cl)n1cccn1 | 5%
CC(=O)Nc1sccc1C(=O)NCc1ccco1 | 1%
Cc1cccc(NC(=O)C(=O)NCCN2CCNCC2)c1 | i
NC(=O)C1CCN(C(=O)c2cc(Br)ccc2Cl)CC1 | i
C=CCn1c(SC2CCOC2=O)nc2sc3c(c2c1=O)CCCC3 (stereo not given) | i
Cc1cc(OCCCN2CCCC2)ccc1C(C)C | i

The final two compounds of the section before open the next one.
SMILES | Mtb H37Rv
C=CCn1c(SC2CCOC2=O)nc2sc3c(c2c1=O)CCCC3 (stereo not given) | i
Cc1cc(OCCCN2CCCC2)ccc1C(C)C | i
O=C(c1ccccc1)n1nc(-c2cccnc2)nc1NCc1cccs1 | i
Cc1ccc(Cl)cc1N1C(=O)CC(N2CCN(C)CC2)C1=O (stereo not given) | i
COc1ccc(-n2nc3cc(C)c(NC(=O)c4ccco4)cc3n2)cc1 | 1%
O=C(c1cnn2c(C(F)F)cc(-c3ccccc3)nc12)N1CCCc2ccccc21 | i
CCOC(=O)c1sc(NC(=O)CSc2n[nH]c(-c3ccncc3)n2)c(C(=O)OCC)c1C | 1%
COc1ccc(NC2c3cccc4cccc(c34)C2NS(C)(=O)=O)cc1 (stereo not given) | 0%
CCOC(=O)c1c(-c2ccc(Cl)cc2)csc1NC(=O)c1cncc(Br)c1 | i
COc1ccc(/C=C/C(=O)Nc2ccccc2[N+](=O)[O-])cc1 | i
CN(C)c1ccc(/C=C(/C#N)c2ccc(C#N)cc2)cc1 | i
Cc1ccc(-c2cc(C(F)(F)F)n3nc(C)cc3n2)cc1 | i

Compounds from the list above that have a tert-butyl group:
SMILES | Mtb H37Rv
CCOC(=O)N1CCN(C(=O)COc2ccc(C(C)(C)C)cc2Br)CC1 | 11%
COc1ccccc1NC(=O)c1ccc(COc2ccc(C(C)(C)C)cc2)o1 | 3%
CC(C)(C)CC(=O)Nc1cccc2ccccc12 | i
Cc1cc(C)cc(C(=O)Nc2ccc(NC(=O)c3ccc(C(C)(C)C)cc3)cc2)c1 | i

The list goes on:
SMILES | Mtb H37Rv
CC(C)(C)NC(=O)c1ccc2ccccc2n1 | i
O=C(Nc1ccccc1)c1cccc(S(=O)(=O)NCc2ccco2)c1 | 1%
Cn1c(COc2ccccc2Br)nc2ccccc21 | 1%
O=C(Nc1cccc2ncccc12)c1ccc([N+](=O)[O-])o1 | 4.3µg/mL*
Cc1ccc(NC(=O)CC2Nc3ccccc3NC2=O)cc1C (stereo not given) | 0%
O=C1C=C(c2ccc(Cl)cc2)OC2(CCCC2)O1 | i
Cc1ccc(S(=O)(=O)N(CC(=O)Nc2ccccc2C(F)(F)F)Cc2cccc(Cl)c2)cc1 | i
O=C1c2ccccc2C(=O)N1CCc1nc2ccccc2c(=O)n1-c1nc2ccccc2s1 | 0%
O=c1c2cc(I)ccc2nc(/C=C/c2ccccn2)n1CCc1ccccc1 | i

Compound activity deposited in PubChem BioAssay by Southern Research Institute.
